# Assay outcomes: PubChem BioAssay, Center for Chemical Genomics, University of Michigan
# HIV TAR-Tat = HIV-1 TAR-Tat binding disruption; AID 1259389; hit rate 0.6% among 100,000; z-score (concentration not given with the values); HIV-1 TAR RNA, Tat peptide displacement FRET; hits give high values;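 note: score is relative to mean and SD of negative controls; some compounds called inactive have numbers as strong as hits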
# CDC25B CDK2 inh = human CDC25B-CDK2/CyclinA binding inhibition | AID 1259370 | P30305+P24941 | hit rate 0.72% among 94,000 | HTRF CDC25B-CDK2/CyclinA binding, anti-His/anti-Flag; hits give high values | z-score (no concentration beside the values);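 note: score is relative to mean and SD of negative controls; strong numbers were not always called active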
# * = called active by the depositor; nt = not tested or not shown.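 Rule for the calls: active = z-score from 3 up in half or more of its runs; inactive = the rest.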 Compounds as they come. Share with any hit: about 0.97%.
SMILES | HIV TAR-Tat | CDC25B CDK2 inh
CCCn1c(SCC(O)c2ccccc2)nc2ccccc21 (stereo not drawn) | -0.55 | -0.78
CCC(=O)N1N=C(c2ccco2)CC1c1cn(-c2ccccc2)nc1-c1cccs1 (stereo not drawn) | -4.5 | -4.91
O=C1CCSc2ccc(S(=O)(=O)NCc3ccc4c(c3)OCO4)cc2N1 | 1.66 | nt
Cc1csc(NC(=O)CSc2nnc(Cn3c(=O)sc4ccccc43)n2C)n1 | nt | -0.69
Fc1cccc(Nc2ncnc3c2oc2ccccc23)c1 | 0.5 | 2.32
Cc1cc(C)c(S(=O)(=O)NCCc2cn3cccc(C)c3n2)cc1C | nt | -0.18
COC(=O)c1sc(-c2ccc(Cl)cc2)cc1NC(=O)Nc1cccc(OC)c1 | nt | -2.05
C=CCc1c(C)nc(SC(C)C)[nH]c1=O | 1.5 | -1.29
NC(=O)C1CCN([C@H]2CS(=O)(=O)C[C@@H]2S(=O)(=O)c2cccs2)CC1 | 1.62 | 0.2
CC(NC(=O)Cn1ncc2c3ccccc3n(Cc3ccccc3)c2c1=O)c1ccc2c(c1)OCCO2 (stereo not drawn) | 1.02 | -2.9
O=C(O)COCC(=O)NNc1c(Cl)cncc1Cl | nt | -0.48
C#CCn1c(CC(C)C)nc2ccccc21 | 1.94 | -2.01
COc1ccc(CCN[C@H]2CS(=O)(=O)C[C@@H]2S(=O)(=O)c2ccc(Cl)cc2)cc1 | 0.88 | -2.33
CCc1ccc(-c2cc(C)no2)cc1S(=O)(=O)Nc1ccc(Cl)cn1 | 1.1 | nt
C=C(C)CN1CCN(c2cc(C)nc3c(-c4ccc(F)cc4)cnn23)CC1 | 1.17 | -2.65
CCCCN(CCCC)CCCn1cnc2c([nH]c3ccc(Cl)cc32)c1=O | -0.9 | -0.63
O=S(=O)(Nc1cccc(Br)c1)c1cccc2cccnc12 | nt | -1.44
O=C(NCCCN1CCc2ccccc2C1)c1csc2c1CCCCC2 | -2.17 | 0.3
Cc1nnc(NC(=O)c2c(O)c3cccc4c3n(c2=O)CCC4)s1 | 1.25 | nt
CCCCS(=O)(=O)N1CCC(c2nnnn2-c2ccc(C)cc2)CC1 | 1.07 | -1.56
CCOC(=O)c1c(S(=O)(=O)NCc2ccco2)c(C)n(C)c1C | 1.43 | nt
Fc1ccc(-c2noc3ncnc(N4CCc5ccccc54)c23)cc1 | 0.87 | nt
CC(=O)N1c2ccc(S(=O)(=O)N3CCOCC3)cc2CC1C(=O)NCCC1=CCCCC1 (stereo not drawn) | 1.56 | nt
CN1CCN(c2nc(N3CCN(C)CC3)c3cnn(C)c3n2)CC1 | 0.38 | nt
O=C(O)CC1(CC(=O)Nc2cc3ccccc3cn2)CCCCC1 | nt | -0.88
CC(=O)N1c2ccc(S(=O)(=O)NC(C(=O)Nc3ccc(Cl)cn3)C(C)C)cc2CC1C (stereo not drawn) | -0.12 | nt
Cc1csc2nc(CSc3ccccc3N)cc(=O)n12 | 0.51 | nt
C=CC(N)CCC(=O)O (stereo not drawn) | nt | 1.38
CCCN(CCC)C(=O)CCS(=O)(=O)c1ccc2c(c1)oc(=O)n2C | -1.51 | nt
COC(=O)C1Sc2[nH]c(=O)sc2C(c2ccc(OC)cc2)C1C(=O)OC (stereo not drawn) | nt | -0.18
CC(C)(C)c1ccc(C2CC(=O)C=C(O)C2)cc1 (stereo not drawn) | 1.03 | 0.24
O=C(c1csc(-c2ccccc2)n1)N1CC=C(c2ccccc2)CC1 | nt | -0.91
CN(Cc1ccccc1)C(=O)C(=O)c1c[nH]c2ccccc12 | 0.13 | 0.13
Cc1ccc(NS(=O)(=O)c2ccc3oc(=O)c4ncn(C)c4c3c2)cc1 | 0.12 | nt
O=C(CSc1ccc2nnc(-c3cccc(F)c3)n2n1)N1CCCC1 | nt | -0.37
CCOc1ccc(-n2nnc3c(sc4nc(C)cc(COC)c43)c2=O)cc1 | 0.82 | -0.75
COc1ccc(NC(=O)CSc2nnc(C)n3c2cc2sccc23)cc1 | 2.92 | nt
CCOc1ccc2nc(NC(=O)c3nn(-c4ccc(F)cc4)ccc3=O)sc2c1 | 0.93 | -1.06
CC(C)COc1ccc(-c2n[nH]c(=O)c(Cc3ccccc3)n2)cc1 | 0.87 | nt
CCOc1ccc(CNc2nc3ccc(C)cc3n3nnnc23)cc1OC | -3.4 | nt
O=C(CCS(=O)(=O)c1cccc2nsnc12)Nc1ccccc1Cl | 0.41 | 0.86
COCCNC1=NCCNC1c1ccccc1 (stereo not drawn) | 0.72 | nt
Cc1ccc(NS(=O)(=O)c2cc(-c3cnc(C)o3)ccc2C)c(Br)c1 | 1.78 | nt
COc1cccc(NC(=O)N2CCSc3ccccc32)c1 | 1.28 | nt
Cn1cccc1CNCC(O)C(F)(F)F (stereo not drawn) | nt | -1.61
O=C(O)CNc1ncnc2nc[nH]c12 | -0.11 | 0.7
O=C(NCCN(Cc1ccco1)C1CCCC1)c1nc(-c2cccnc2)no1 | 1.54 | nt
C=CCN1C(=O)NC(C)(C)C1=O | nt | 0.02
Cc1cc(C)c(CSc2nc3ccncc3[nH]2)c(C)c1 | 0.96 | 1.13
COc1ccccc1NS(=O)(=O)c1ccc(-c2ccc(=O)[nH]n2)s1 | 1.64 | nt
COc1ccc(-c2cn3cccc(C)c3n2)cc1F | 0.35 | -1.53
COc1ccc(-c2ccc(=O)n(CC(=O)Nc3ccc(OC)c(OC)c3)n2)cc1 | nt | -0.49
CCOc1ccc(S(=O)(=O)[C@H]2CS(=O)(=O)C[C@@H]2NCCC(C)C)cc1 | 0.51 | -0.6
O=C(CCCN1C(=O)S/C(=C/c2ccccc2)C1=S)Nc1ccccc1C(=O)O | 0.82 | -1.37
CC1CCN(S(=O)(=O)c2ccc3c(c2)N(CC(=O)N2C(C)CCCC2C)C(=O)CS3)CC1 (stereo not drawn) | -0.88 | -0.48
CCCCc1nccn1CCn1ccnc1CCCC | 2.61 | -0.69
Cc1ccc(-c2cnnc(-n3nc(C)c4c3NC(=O)CC4c3ccccc3F)n2)cc1 (stereo not drawn) | 4.35 | 2.3
Cc1cc(-c2ccc(S(=O)(=O)NCc3cccc(Br)c3)s2)on1 | -0.2 | nt
CC1=C(c2ccc(C(C)C)cc2)S(=O)(=O)N=C1Nc1cccnc1 | 0.13 | -4.45
CC1=NN(c2nc(C)cc(C)n2)C(=O)C1C (stereo not drawn) | 0.44 | -1.05

# Additional compounds follow:
SMILES | HIV TAR-Tat | CDC25B CDK2 inh
CNC(=O)CCCc1nnc2n(CCC(C)C)c(=O)c3sccc3n12 | -0.32 | nt
Cn1cc(S(=O)(=O)N2CCc3ccccc32)cc1C(=O)Nc1ccc(S(N)(=O)=O)cc1 | 0.06 | 0.05
CSCCC(NC(=O)c1ccco1)C(=O)O (stereo not drawn) | 0.49 | -1.6
O=C(CO/N=C/c1ccccc1)N=Nc1c(O)n(CN2CCCCC2)c2ccccc12 | nt | -3.29
O=S(=O)(NCC(c1ccccc1)N1CCOCC1)c1ccccc1 (stereo not drawn) | 2.23 | -1.61
Cc1ccnc(NC(=O)C2(c3cccs3)CCOCC2)n1 | 1.09 | nt
COc1cc(-c2nnc(SCC(=O)c3cccs3)n2C)cc(OC)c1OC | nt | -1.43
O=C1CCCc2cc(S(=O)(=O)N3CCCC(C(=O)NCc4ccco4)C3)ccc2N1 (stereo not drawn) | -0.14 | nt
CC1Sc2ccc(S(=O)(=O)NCCN(C)C)cc2NC1=O (stereo not drawn) | 2.01 | nt
O=S(=O)(Nc1ncn(Cc2ccc(Cl)cc2)n1)c1ccc(F)c(Cl)c1 | 0.12 | -0.68
Cc1cc(=O)nc2c3ccccc3n(CC(=O)N(C)Cc3ccccc3)n12 | -0.18 | -0.39
CC(=O)Oc1ccc(C2C(C(=O)OCC(C)C)=C(C)NC3=C2C(=O)CC(c2ccccc2)C3)cc1 (stereo not drawn) | -0.26 | -4.37
CC1(C)Cc2c(C#N)c(SCC(=O)N3CCCC3)nc(N3CCOCC3)c2CO1 | -0.79 | 0.07
Cc1cccn2c(=O)c(C(=O)NC3CCCC3)cnc12 | 1.33 | nt
CCOCCc1nn2c(=O)cc(COC(=O)c3cccc(C)c3)nc2s1 | -0.17 | nt
CN(C)/C=C/C(=O)c1ccc([N+](=O)[O-])cc1Cl | nt | -2
CCOC(=O)c1c(OC)cccc1OC | nt | -0.12
CC(C)C(NC(=O)C(NC(=O)C1O[C@@H]2OC(C)(C)O[C@@H]2[C@H]2OC(C)(C)O[C@@H]12)C(C)C)C(=O)O (stereo partly drawn) | nt | -2.69
Cc1cc(C)cc(NC(=O)C2CC3CCCN3C23C(=O)N(C)c2ccccc23)c1 (stereo not drawn) | -0.47 | nt
CCOC(=O)C1CCN(c2c(NCCN3CCCCC3C)c(=O)c2=O)CC1 (stereo not drawn) | 1.16 | -0.73
O=C(Nc1nnc2n1CCS2)C1CCCO1 (stereo not drawn) | -0.34 | nt
Cc1cc(=O)[nH]c(SCCOc2ccc(OC(C)C)cc2)n1 | -1.13 | -1.04
Cn1cnc([N+](=O)[O-])c1NCc1ccc2c(c1)OCO2 | nt | -0.91
O=C(COc1ccccc1F)OCc1cc(=O)n2nc(C3CCCCC3)sc2n1 | 0.31 | nt
CCCCC(=O)Nc1cc2c(cc1C)n(C)c(=O)n2C | 1.24 | nt
CC(C)(C)C(=O)O/N=C(\N)c1ccc([N+](=O)[O-])s1 | nt | 0.29
O=C1CC(c2nc3ccccc3[nH]2)CN1Cc1cccs1 (stereo not drawn) | 0.74 | -1.48
CCCOc1ccc(-c2nc3ccc(Br)cc3c(=O)o2)cc1 | nt | -2.17
CCCCNC(=O)c1cccn1-c1nnc(N2CCCC2)s1 | 0.76 | nt
N#Cc1nc(/C=C/c2cccs2)oc1N1CCC(Cc2ccccc2)CC1 | -1.13 | 0
CCOC(=O)Nc1noc2ccccc12 | 2.54 | -1.24
CCN(CC)S(=O)(=O)c1ccc2c(c1)N(CC(=O)N1CCCC1)C(=O)C1CCCCN21 (stereo not drawn) | 2.54 | nt
O=C(CCCn1c(=O)c2cccn2c2cccnc21)NC1CCCC1 | 0.76 | nt
C=CCOC(=O)C1=C(C)Nc2nc(SCC=C)[nH]c(=O)c2C1c1ccncc1 (stereo not drawn) | 0.99 | -1.13
Cc1cc(-c2ccc(S(=O)(=O)N3CCN(C)CC3)cc2)on1 | -0.19 | nt
COc1cccc(C2c3c(oc4ccccc4c3=O)C(=O)N2c2nc(C)c(C)s2)c1 (stereo not drawn) | 2.16 | -3.16
O=C(CSc1nc2ccccc2c(=O)[nH]1)Nc1ccc(Cl)cc1 | 1.48 | nt
COC(=O)C1CC23C=CCN4CCC5(c6ccccc6NC15C2C)C43 (stereo not drawn) | -0.47 | -1.13
CC(C)(CC(=O)O)CC(=O)Nc1ccccc1N1CCOCC1 | nt | -1.39
COc1ccc(NC(=O)CSc2ncnc3sc4c(c23)CCCC4)cc1 | nt | -13.7
O=C(NCc1ccc2c(c1)OCO2)C(=O)NCC(c1ccco1)S(=O)(=O)c1ccc(F)cc1 (stereo not drawn) | 2.18 | nt
COc1ccc(-c2nc3c(c(=O)[nH]2)Cc2cc(Br)cc(OC)c2O3)cc1O | 1.72 | -1.76
O=C(CCCN1C(=O)c2cccc3cccc(c23)C1=O)NCC1CCCO1 (stereo not drawn) | 1.49 | -0.9
O=C(O)c1cc(-c2cccc(O)c2)nc2ccc(Br)cc12 | 0.19 | 0.02
Cc1ccc(C2=NN(C(=O)c3cccnc3)C(O)(C(F)(F)F)C2)cc1 (stereo not drawn) | nt | -2.48
CCOC(=O)N1CCN(C(=O)CCS(=O)(=O)c2ccc3c(c2)CCN3C(=O)CC)CC1 | 0.77 | nt
O=S(=O)(c1ccc2nc(-c3ccccc3)[nH]c2c1)N1CCN(c2cccc(Cl)c2)CC1 | nt | -1.27
Cc1ccc(CNC(=O)c2cnc(N3CCCC3)nc2C)o1 | 0.97 | nt
Cc1ccc(C)c(-n2c(=O)c(C#N)cc3c(=O)n4cc(C)ccc4nc32)c1 | -0.39 | -1.48
O=C(CN1CCCN(S(=O)(=O)c2ccc(Br)s2)CC1)Nc1ccc(Cl)cc1 | nt | 0.01
Cc1ccc(C2=NS(=O)(=O)N(C)C(C(=O)NCC(C)C)=C2)cc1 | 2.5 | -0.31
O=C(NC1CCCC1)c1ccc2c(c1)sc1nc(-c3ccccc3)cn12 | 3.04 | nt
CC(C)c1ccc(S(=O)(=O)Nc2ncn(Cc3ccc(Cl)cc3)n2)cc1 | -0.1 | -0.86
Cc1onc(-c2c(Cl)cccc2Cl)c1NC(=O)N1CCc2sccc2C1C (stereo not drawn) | nt | -1.77
Cc1nc2sccn2c(=O)c1CCN1CCC(=C(c2ccc(F)cc2)c2ccc(F)cc2)CC1 | 0.88 | -0.74
Cc1cc(C)n(-c2nc3nonc3nc2Nc2cccc(C)c2C)n1 | 1.02 | -0.06
COCc1cc(=O)oc2cc(OC(C)=O)ccc12 | nt | -1.18

# Molecules shown so far containing bromine:
SMILES | HIV TAR-Tat | CDC25B CDK2 inh
O=S(=O)(Nc1cccc(Br)c1)c1cccc2cccnc12 | nt | -1.44
Cc1ccc(NS(=O)(=O)c2cc(-c3cnc(C)o3)ccc2C)c(Br)c1 | 1.78 | nt
Cc1cc(-c2ccc(S(=O)(=O)NCc3cccc(Br)c3)s2)on1 | -0.2 | nt
CCCOc1ccc(-c2nc3ccc(Br)cc3c(=O)o2)cc1 | nt | -2.17
COc1ccc(-c2nc3c(c(=O)[nH]2)Cc2cc(Br)cc(OC)c2O3)cc1O | 1.72 | -1.76
O=C(O)c1cc(-c2cccc(O)c2)nc2ccc(Br)cc12 | 0.19 | 0.02
O=C(CN1CCCN(S(=O)(=O)c2ccc(Br)s2)CC1)Nc1ccc(Cl)cc1 | nt | 0.01
